VACV Venus inh: inhibitors of vaccinia virus (Venus reporter). Potency, µM (highest dose often 36.5 µM), inactives show top-dose activity change, negative = inhibition, most hits filed as inhibitors. Vaccinia virus Venus reporter expression, fluorescence. 330,000 compounds, 0.46% hits; active means well fitted inhibition curve with a large enough effect; inconclusive means small, poorly fitted or top-dose-only effect; inactive means no such curve, though single readings can be large or run the other way; tested in A549 cells; note: nearly all actives have a fitted effect of over 30% in size; inactives centre near -10
VACV mCherry inh: inhibitors of vaccinia virus infection (mCherry reporter signal). Vaccinia virus mCherry reporter infection, fluorescence; about a quarter of the inactives have no number. Potency, µM (series often up to 36.5 µM), inactives show top-dose activity change, negative = inhibition, usual class: inhibitors. 310,000 compounds, 0.63% hits; active = well fitted inhibition curve with a large enough effect; inconclusive = small, poorly fitted or top-dose-only effect; inactive = no such curve, though single readings can be large or run the other way; tested in A549 cells; note: nearly all actives have a fitted effect of over 35% in size; inactives centre near -10
An asterisk follows results filed as active; i = inactive; ? = inconclusive; · = no result given; [ ] = dose if it differs, or a comment. % is set by controls: 0 for no effect and ±100 for the full control effect; potency is the fitted concentration of half-maximal effect.

SMILES	VACV Venus inh	VACV mCherry inh
Cc1nn(S(=O)(=O)c2ccc(C(C)C)cc2)c(C)c1S(=O)(=O)N1CCCCC1	-5%	2%
COc1ccc(C2NC(=S)NC3=C2CCc2ccccc23)cc1OC (stereo unspecified)	1%	i
CC(=O)N1c2ccccc2N=C(c2ccc(C(F)(F)F)cc2)C1C(=O)NC(C)C (stereo unspecified)	-7%	i
O=C(Nc1nc(-c2ccc(-c3ccccc3)cc2)cs1)C1CCCO1 (stereo unspecified)	-27%	-13%
CCn1c(=O)cc(OCC(=O)N2CCN(c3cccc(C)c3C)CC2)c2ccccc21	-25%	-14%
O=C(CCn1nnc2ccccc21)N/N=C\Cc1ccccc1	-14%	-10%
COc1ccc(-c2ccccc2)cc1NC(=O)C1(C)CCN1C(=O)C(C)C (stereo unspecified)	-19%	-12%
Cc1nc(SCC(=O)NC2CCCCC2)[nH]c(=O)c1C	-5%	i
CCCCNC(=O)c1ccc2nc(-c3ccco3)c(-c3ccco3)nc2c1	-7%	i
COc1ccc(C(=O)Nc2ccccc2C(=O)N/N=C/c2ccco2)cc1	-9%	-21%
COc1cccc(CNC(=O)Cc2nc3nc(C)cc(C)n3n2)c1	-2%	-15%
S=C(NCCCc1ccccc1)Nc1ccccc1	-15%	-13%
COCCCNC(=O)COc1ccc(-c2nccc(-c3ccccn3)n2)cc1	-29%	·
COc1ccc(CNC(C)C23CC4CC(CC(C4)C2)C3)c(OC)c1OC (stereo unspecified)	-28%	-25%
O=C(CSc1ccc([N+](=O)[O-])cn1)Nc1ccccc1N1CCOCC1	-29%	-29%
CCOC(=O)C1(Cc2ccccc2Cl)CCN(Cc2csc(C(C)=O)c2)CC1	-9%	-13%
COc1cc(C2=CN(Cc3ccccc3)CCC2=O)cc(OC)c1OC	-5%	i
O=C(NCc1ccco1)C1CC(=O)N(c2ccc(Cl)cc2)C1 (stereo unspecified)	-7%	-9%
CCN(CC)C(=O)c1[nH]cnc1C(=O)Nc1ccc(Cl)cc1	-24%	-7%
CCn1c(SCC(=O)N2CCc3ccccc32)nnc1-c1c[nH]c2ccccc12	-14%	·
C/C(=N\N1CCN(Cc2ccc(Cl)cc2)CC1)c1ccc(F)cc1	-13%	-8%
c1ccc(-c2csc(Nc3ccc4c(c3)OCO4)n2)cc1	-11%	i
COc1ccc(Cl)cc1-n1c(C)cc(C(=O)O)c1C	-16%	i[1.46 µM]
Cc1ccc(/C=N/Nc2nc(Cl)c(Cl)cc2Cl)s1	-15%	-1%
COc1ccc(/C=C2/C(=O)ON=C2c2ccccc2)cc1OC	0%	-8%

Grouped by structure, the entries above with nitrogen in an aromatic ring (14)
SMILES	VACV Venus inh	VACV mCherry inh
Cc1nn(S(=O)(=O)c2ccc(C(C)C)cc2)c(C)c1S(=O)(=O)N1CCCCC1	-5%	2%
O=C(Nc1nc(-c2ccc(-c3ccccc3)cc2)cs1)C1CCCO1 (stereo unspecified)	-27%	-13%
CCn1c(=O)cc(OCC(=O)N2CCN(c3cccc(C)c3C)CC2)c2ccccc21	-25%	-14%
O=C(CCn1nnc2ccccc21)N/N=C\Cc1ccccc1	-14%	-10%
Cc1nc(SCC(=O)NC2CCCCC2)[nH]c(=O)c1C	-5%	i
CCCCNC(=O)c1ccc2nc(-c3ccco3)c(-c3ccco3)nc2c1	-7%	i
COc1cccc(CNC(=O)Cc2nc3nc(C)cc(C)n3n2)c1	-2%	-15%
COCCCNC(=O)COc1ccc(-c2nccc(-c3ccccn3)n2)cc1	-29%	·
O=C(CSc1ccc([N+](=O)[O-])cn1)Nc1ccccc1N1CCOCC1	-29%	-29%
CCN(CC)C(=O)c1[nH]cnc1C(=O)Nc1ccc(Cl)cc1	-24%	-7%
CCn1c(SCC(=O)N2CCc3ccccc32)nnc1-c1c[nH]c2ccccc12	-14%	·
c1ccc(-c2csc(Nc3ccc4c(c3)OCO4)n2)cc1	-11%	i
COc1ccc(Cl)cc1-n1c(C)cc(C(=O)O)c1C	-16%	i[1.46 µM]
Cc1ccc(/C=N/Nc2nc(Cl)c(Cl)cc2Cl)s1	-15%	-1%

Two compounds drawn at random from those above, as already listed:
SMILES	VACV Venus inh	VACV mCherry inh
O=C(NCc1ccco1)C1CC(=O)N(c2ccc(Cl)cc2)C1 (stereo unspecified)	-7%	-9%
COc1ccc(/C=C2/C(=O)ON=C2c2ccccc2)cc1OC	0%	-8%

Remaining list, next part
SMILES	VACV Venus inh	VACV mCherry inh
COc1ccccc1NC(=S)NN=C(C)c1ccccn1	?	?
OCCN1C2=NCCCN2c2ccccc21	-4%	i
COc1ccccc1S(=O)(=O)Cc1ccc(C(=O)N2CCOCC2)o1	-4%	7%
CC(=O)Nc1nnc(SCc2cc(=O)c3cccc(C)c3[nH]2)s1	-9%	-10%
CC1CC(C)CN(S(=O)(=O)c2cccc3cccnc23)C1 (stereo unspecified)	-2%	i
C[C@H](NC(=O)c1nc[nH]c1C(=O)NCc1ccc(CNC(=O)OC(C)(C)C)cc1)C(=O)OC(C)(C)C	-30%	i
CCc1nc2ccccc2c(=O)n1NC(=O)c1c(O)c2cccc3c2n(c1=O)CCC3	-13%	·
O=C(CCc1ccccc1)NNC(=O)c1ccccc1F	-2%	i
O=C(NCC(=O)N(c1ccccc1F)C(C(=O)NC1CCCC1)c1cccnc1)c1ccco1 (stereo unspecified)	2%	-1%
CCc1cccc(C)c1NC(=O)COC(=O)CNS(=O)(=O)/C=C/c1ccccc1	-10%	-5%
CCOc1ccc2oc(-c3ccccc3)c(C(=O)O)c2c1	-7%	-14%
Cc1cc(Br)ccc1OCCN1CC(C)OC(C)C1 (stereo unspecified)	-9%	i
O=C(COc1ccc2cc(-c3ccccc3)c(=O)oc2c1)NCC1CCC(C(=O)O)CC1 (stereo unspecified)	7%	4%
COc1ccc(-c2cc(C(=O)NCCCn3ccnc3)no2)cc1OC	-8%	-9%
O=S(=O)(c1cc(-c2nnc(-c3ccc(Br)cc3)o2)ccc1Br)N1CCCCCC1	-1%	·
COc1ccc(N2CCN(c3nc4cc(C)ccc4cc3C=O)CC2)cc1	5%	?
CC(C)(C)C1CCc2nc(NC(=O)Cc3ccccc3)sc2C1 (stereo unspecified)	-19%	i
Cn1c(=O)nc2n(Cc3ccccc3)c3ccccc3cc-2c1=O	-3%	-8%
Cc1ccc(-c2csc3ncnc(Sc4nnnn4C4CC4)c23)cc1	-28%	-24%
COc1ccc(C(C(=O)NC2CCCC2)N(C(=O)c2ccco2)c2cc3c(cc2C(C)=O)OCO3)cc1OC (stereo unspecified)	-14%	-15%
CCN(CC)CCN1C(=O)c2cccc3cc(N)cc(c23)C1=O	?	?
Cc1nn(C)c(C)c1S(=O)(=O)N1CCCC(C(=O)N2CCN(c3ccccc3)CC2)C1 (stereo unspecified)	-19%	?
COc1ccc(-c2nc3scc(CCNS(=O)(=O)c4ccc(C)cc4)n3n2)cc1	-17%	-10%
O=c1[nH][nH]cc1C=Nc1ccc(Cl)cc1	-9%	-15%
Cc1ccc(S(=O)(=O)c2cc3cc(C(=O)Nc4ccc(C)cc4C)ccc3oc2=O)cc1	-1%	-6%

Some of the entries so far, as a markdown table.
| Structure | VACV Venus inh | VACV mCherry inh |
| --- | --- | --- |
| Cc1ccc(S(=O)(=O)c2cc3cc(C(=O)Nc4ccc(C)cc4C)ccc3oc2=O)cc1 | -1% | -6% |
| CC(C)(C)C1CCc2nc(NC(=O)Cc3ccccc3)sc2C1 (stereo unspecified) | -19% | i |

Other compounds follow.
SMILES	VACV Venus inh	VACV mCherry inh
COc1cc(OC)cc(-c2c(-c3ccc(F)cc3)c3cc(-c4ccc(OC)nc4)ccc3n2C)c1	-5%	i
CCC(=O)Nc1nnc(CSCc2ccc(F)cc2)s1	-1%	·
C[C@H]1COC(=O)CC/C=C\C[C@H](CC(=O)N(CCO)Cc2ccccc2)C(=O)N1	-5%	-16%
Cc1ccc(C(=O)NCCONC(=O)c2ccc(C)cc2)cc1	-6%	-8%
CC(C)(C)NC(=O)c1ccncc1	-10%	·
CCc1c(C2(O)CCCCC2)[nH]c2cnccc12	-18%	-4%
CN(CC(=O)Nc1ccccc1Br)C(=O)c1ccccc1OCc1ccccc1Cl	-11%	?
Cc1nc(COC(=O)c2cc(O)c3ccccc3c2O)cs1	0%	?
C[C@@H]1CN([C@@H](C)CO)C(=O)CCCn2nncc2CO[C@H]1CN(C)C(=O)OCc1ccccc1	-8%	i
Cc1ccc(-n2nc3c(c2NC(=O)C(C)C)CS(=O)(=O)C3)c(C)c1	-15%	?
COc1cc(/C=C2/C(=O)NC(=O)N(c3ccc(C)cc3)C2=O)cc(OC)c1OC	8%	-1%
Cc1cccc(Cc2c(C)nc3c(C(=O)N4CCN(Cc5ccc6c(c5)OCO6)CC4)cnn3c2C)c1	?	-8%
CCC(C)NCCOCCOc1cc(C)c(Cl)c(C)c1 (stereo unspecified)	-22%	-14%
CCc1ccccc1Nc1nn2c(=O)c3ccc(C(=O)NCc4cccs4)cc3nc2s1	-24%	?
CC1Cc2ccccc2N1C(=O)NC1CC(=O)N(c2ccc3c(c2)OCCO3)C1 (stereo unspecified)	20%	-20%
CC(=O)N1CCN(S(=O)(=O)c2cccc(C(=O)Nc3ccccc3N3CCCCC3)c2)CC1	-19%	i
COc1ccccc1NC(=O)C1=C(C)Nc2nc(SCc3ccc(Cl)cc3)nn2C1c1ccccc1Cl (stereo unspecified)	-17%	-23%
O=C(O)CCCCCNC(=O)OCC1c2ccccc2-c2ccccc21	-24%	-11%
